Six1-Eya2 blk = Six1/Eya2 interaction inhibition; 360,000 tested, 0.56% active; AID 651725; activity change, % (no concentration beside the values); Q15475+O00167; AlphaScreen GST-Six1/His-Eya2 binding, biochemical; stronger effect = lower value; control for the full effect not named in the record; in the data active = activity change below about -65%; inconclusive = about -30% to -65%; inactive = above about -30%; further: on the % scale 0 is the no-effect control and ±100 the full control effect; compound concentration not given in the record
Target sequence (O00167 whole entry, looked up): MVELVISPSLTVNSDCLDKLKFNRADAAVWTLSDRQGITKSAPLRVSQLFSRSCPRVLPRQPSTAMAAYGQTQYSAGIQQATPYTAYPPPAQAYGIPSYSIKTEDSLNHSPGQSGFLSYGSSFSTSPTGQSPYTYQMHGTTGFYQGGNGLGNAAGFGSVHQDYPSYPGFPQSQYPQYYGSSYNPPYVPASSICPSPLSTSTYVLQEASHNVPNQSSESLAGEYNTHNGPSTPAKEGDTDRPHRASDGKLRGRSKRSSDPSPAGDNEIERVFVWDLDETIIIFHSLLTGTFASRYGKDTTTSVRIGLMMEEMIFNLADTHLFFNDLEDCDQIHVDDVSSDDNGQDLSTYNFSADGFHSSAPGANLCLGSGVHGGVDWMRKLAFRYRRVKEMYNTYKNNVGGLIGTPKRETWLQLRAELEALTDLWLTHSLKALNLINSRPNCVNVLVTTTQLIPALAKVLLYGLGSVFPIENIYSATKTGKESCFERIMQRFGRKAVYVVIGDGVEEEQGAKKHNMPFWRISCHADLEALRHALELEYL
Target sequence (Q15475 whole entry, looked up): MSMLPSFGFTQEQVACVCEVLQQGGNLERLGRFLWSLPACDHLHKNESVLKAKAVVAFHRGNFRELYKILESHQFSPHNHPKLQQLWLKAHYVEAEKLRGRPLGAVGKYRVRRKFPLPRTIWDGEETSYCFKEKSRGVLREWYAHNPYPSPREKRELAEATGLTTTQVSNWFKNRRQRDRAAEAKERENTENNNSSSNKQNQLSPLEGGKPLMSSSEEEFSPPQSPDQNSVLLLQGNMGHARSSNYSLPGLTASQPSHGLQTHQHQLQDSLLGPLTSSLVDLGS
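GST-Six1 + His-Eya2 (5X stock: 250/500 nM); Tris pH 8.0, 300 mM NaCl, 0.05% BSA, 0.02% Tween 20; GSH donor/Ni acceptor beads; 1 h 37 °C dark; AlphaScreen readout.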
D2 ag = activates the human D2 dopamine receptor; P14416; DiscoveRx PathHunter D2 beta-arrestin, luminescence, 90 min; 100% = 57 uM dopamine signal; activation, % (test concentration not listed); 360,000 tested, 0.084% active; in the data active = activation above about 40%; inconclusive = about 15% to 40%; inactive = below about 15%; further: compound concentration not given in the record; the text of the record calls up to 30% inactive
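Agonist mode: compounds alone added to overnight-plated D2 PathHunter cells for 90 min at 37 C, with 57 uM final dopamine (EC100) defining full response. Beta-arrestin recruitment detected by chemiluminescent reagent, read after 1 h at ambient temperature.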
TRPML1 ag = human mucolipin-1 channel agonism | activation, % (no concentration beside the values) | 410,000 tested, 0.12% active | Q9GZU1 | TRPML1-expressing cells, Ca2+ dye fluorescence, FDSS; host cell line not named in the record; reference of the full effect not given here; in the data active = activation above about 50%; inconclusive = about 30% to 50%; inactive = below about 30%; further: 0% is about no effect; the text of the record puts the active cut at 80%
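In this qHTS format, compounds were pin-transferred onto Ca8-dye-loaded TRPML1-DL cells induced with Tet overnight, and intracellular Ca2+ fluorescence was recorded kinetically for 110 s after a 10 s baseline. A subsequent 4uM final 54-4 (EC80) addition followed by a second 110 s read served as the antagonist phase.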
An asterisk follows results filed as active; . = not tested or not shown.

The line under a structure holds: TRPML1 ag, D2 ag, Six1-Eya2 blk
CCc1ccc(C(=O)C[N+]2(C)CCOCC2)cc1
→ 0.0, ., .
Cc1cc2ccccc2c[n+]1CC(=O)c1ccc(F)cc1
→ -0.4, ., .
C[C@@H]1[C@H](c2ccccc2)OCCS(=O)(=O)N1Cc1ccccc1F
→ -0.8, ., .
O=C1CCC[C@@H]2CC(Nc3ccccc3)C[C@@H]3CCN1[C@H]23 (stereo not given in full)
→ -0.7, ., .
Cc1ccc(SC[C@H](C)CN2CC[C@H](O)CCC2=O)cc1
→ -0.5, ., .
COC(=O)C[C@H]1c2ccccc2S(=O)(=O)N1c1ccc(N(C)C)cc1
→ -1.2, ., .
CC(Oc1ccccc1)C(=O)N[C@@H]1C(=O)N2C(C(=O)OCC3CCCCC3)C(C)(C)S[C@H]12 (stereo not given in full)
→ -0.4, ., .
O=C1C[C@H]2C=CCc3cccc(c32)CN1Cc1ccccc1
→ -1.0, ., .
COc1ccccc1N(C)C
→ -0.3, ., .
COc1cc(-c2c(-c3ccc4c(c3)OCO4)noc2-c2ccsc2)cc(OC)c1OC
→ -0.8, ., .
O=C(C[n+]1ccccc1Cl)c1ccc(Br)cc1
→ -0.2, ., .
COc1cc(N(C)C)c(OC)cc1C=O
→ -0.2, ., .
Nc1c(Br)cc(C=O)cc1Br
→ -0.8, ., .
Cc1ccc(CN2[C@H](C)[C@H](c3ccccc3)OCCS2(=O)=O)cc1
→ 2.1, ., .
Nc1cccc(/C=C/c2ccnc3ccccc23)c1
→ -0.4, ., .
CCc1cccc2c(C(O)c3c[nH]c4ccccc34)c[nH]c12 (stereo not given)
→ 12, ., .
COc1cc(-c2noc(C)c2C#CCCN2C(=O)c3ccccc3C2=O)cc(OC)c1OC
→ -0.7, ., .
Cc1ccnc2ccc(I)cc12
→ -0.9, ., .
OC(C[n+]1c(Cl)ccc2ccccc21)c1ccccc1 (stereo not given)
→ -0.6, ., .
O=C1CCC[C@@H]2C[C@@]3(C[C@@H]4CCN1[C@H]24)Nc1ccccc1NC3=NCc1ccccc1
→ 0.0, ., .
O=C(O)/C=C/c1ccc2c(c1)S(=O)(=O)N(C1CCCC1)[C@H]2CC(=O)O
→ 0.0, ., .
Clc1ccc2nc[nH]c2c1
→ -0.2, ., .
CC(=O)Nc1ccc(SC[C@H](Cc2ccccc2)N2CC[C@@H](N)CCC2=O)cc1
→ -0.3, ., .
Cc1ccnc2ccc(Br)cc12
→ -0.7, ., .
O=C1C[C@H]2C=CCc3cccc(c32)CN1Cc1cccc(F)c1
→ -0.4, ., .
O=C(Nc1ccc(Cl)cc1Cl)[C@@H]1CC=C[C@@H]2CCN(Cc3ccccc3)C(=O)[C@@H]21
→ -0.6, ., .
O=C([C@@H]1CC=C[C@@H]2CCN(C3CC3)C(=O)[C@@H]21)N1CCOCC1
→ -0.5, ., .
CC/C(=C/c1ccccc1)c1cc(Oc2ccccc2)cc2oc3ccccc3c12
→ 0.9, ., .
C[C@@H]1[C@H](c2ccccc2)OCCS(=O)(=O)N1Cc1ccc(Cl)cc1
→ -0.1, ., .
O=C1[C@H](Cc2ccccc2)NC/C=C\C[C@H](c2ccco2)N1Cc1ccccc1
→ 1.5, ., .
Cc1ccc2nccc(/C=C/c3ccc(N(C)C)cc3)c2c1
→ 22, ., .
CC(Oc1ccccc1)C(=O)N[C@@H]1C(=O)N2C(C(=O)O)C(C)(C)S[C@H]12 (stereo not given in full)
→ -0.4, ., .
Cc1cc(=O)[nH]c2cc(N)ccc12
→ -0.5, ., .
Cc1sc2ccccc2[n+]1CC(=O)c1ccc(F)cc1
→ -0.2, ., .
O=C(C[n+]1ccccc1Br)c1ccc(-c2ccccc2)cc1
→ -0.7, ., .
Cn1c(C(c2cc3ccccc3n2C)c2cc3ccccc3n2C)cc2ccccc21
→ 1.2, ., .
COc1ccc(CNC(=O)[C@@H]2CC=C[C@@H]3CCN(Cc4ccc(OC)c(OC)c4)C(=O)[C@@H]32)cc1
→ -0.4, ., .
Cc1ccc(C)c2c(C)ccnc12
→ -0.7, ., .
CN(C)C(=O)c1ccc(/C=C/c2ccnc3ccccc23)cc1
→ 18, ., .
Cc1cc(/C=C/c2ccccc2)nc2ccccc12
→ 0.4, ., .
OC(CN1CCCCC1)c1ccccc1 (stereo not given)
→ 0.1, ., .
C=CCN1[C@@H](C(C)C)COCCS1(=O)=O
→ -0.7, ., .
O=C(C[n+]1cccc(Br)c1)c1ccc(I)cc1
→ -0.2, ., .
O=C(C[N+]12CCCc3cccc(c31)CCC2)c1ccc(Cl)c2ccccc12
→ 0.3, ., .
c1ccc2c(c1)sc[n+]2CCC1CCCCC1
→ 0.3, ., .
O=C(C[n+]1cccc2cc(Cl)ccc21)c1ccc(I)cc1
→ 0.0, ., .
C=C[C@H](CC(C)C)N(Cc1ccccc1)S(=O)(=O)N(Cc1ccccc1)[C@H](C=C)CC(C)C
→ -0.3, ., .
Cc1cnc2c(C)cccc2c1C
→ -0.4, ., .
CN(C)c1ccc(/C=C/c2c3ccccc3nc3ccccc23)cc1
→ 0.4, ., .
CN(Cc1ccccc1)c1ccc(C=O)cc1
→ -1.4, ., .
C[C@@H]1[C@H](c2ccccc2)OCCS(=O)(=O)N1Cc1cccc(C(F)(F)F)c1
→ 0.2, ., .
O=c1[nH]cnc2n[nH]nc12
→ -0.1, ., .
O=[N+]([O-])c1ccc(C=C2c3ccccc3-c3ccccc32)cc1
→ -0.8, ., .
CN(C)c1ccc(/C=C/c2ccnc3c2ccc2ccccc23)cc1
→ 16, ., .
O=Nc1ccc(/C=C/c2ccnc3ccccc23)cc1
→ -0.7, ., .
CCCCCCCCCCCCCCCCCCN(CCCCCCCCCCCCCCCCCC)c1ccc(/C=C/c2ccc(C=O)cc2)cc1
→ 0.1, ., .
Cc1cc(C)cc(NC(=O)Cn2cc3c(n2)CCCCC3)c1
→ ., -1.4, .
CCC(c1nc2ccccc2[nH]1)n1c(=O)c(-c2cccs2)nc2ccccc21 (stereo not given)
→ ., ., 10
COC(=O)C[C@H]1C=C[C@H](NC(=O)Cc2ccccc2)[C@@H](CO)O1
→ ., ., 11
CCCc1nc2ccccc2n1C(C(=O)NC(C)(C)C)C1CC1 (stereo not given)
→ ., ., -2

Other structures
The line under a structure holds: TRPML1 ag, D2 ag, Six1-Eya2 blk
COc1ccc(CCC(=O)N2c3ccccc3N=C(c3ccc(C(F)(F)F)cc3)C2C(=O)NC2CCCC2)cc1 (stereo not given)
→ ., ., -14
CN(C)CC(=O)N[C@@H]1CC[C@@H](CCNS(=O)(=O)c2ccccc2)O[C@@H]1CO
→ ., ., 13
O=C(NC1CCCCC1)C(c1ccnc2ccccc12)n1c(=O)c(-c2ccccc2)nc2ccccc21 (stereo not given)
→ ., ., 4
CCC(=O)Nc1ccc2c(c1)OC[C@@H](C)NC[C@@H](C)[C@@H](OC)CN(C)C2=O
→ ., ., 2
Cc1cc2c(cc1C)-n1nnnc1C(N1CCN(c3ccccn3)CC1)C(c1ccc3c(c1)OCO3)=N2 (stereo not given)
→ ., ., -5
Cc1ccc(N2CCN(C(CCc3ccccc3)C(=O)Nc3c(C)cccc3C)CC2)cc1 (stereo not given)
→ ., ., 2
O=c1cccc(-c2ccc3ccccc3c2)o1
→ ., ., -3
Nc1sc(Cc2ccccc2)cc1C(=O)NC1CCCCC1
→ ., ., 3
c1ccc(-c2nc3ccccc3n2C(c2ccccc2)c2nc3ccccc3[nH]2)cc1 (stereo not given)
→ ., ., -9
CCOC(=O)N1CCN(C(=O)C[C@@H]2C[C@@]3(C(=O)OC)CC(C)(C)CC=C3N(CCc3ccc(OC)c(OC)c3)C2=O)CC1
→ ., ., -5
O=C(C(=O)N1CCN(CCN2CCOCC2)CC1)c1ccccc1
→ ., ., 43
CCCCCNC(=O)C(c1ccncc1)n1c(=O)c(-c2ccco2)nc2ccccc21 (stereo not given)
→ ., ., 0
Cc1cc2c(cc1C)-n1nnnc1C(N(C)CCc1ccccc1)C(=O)N2 (stereo not given)
→ ., ., -8
COc1ccc(C(C(=O)NC(C)(C)C)n2c(=O)c(-c3ccco3)nc3ccccc32)cc1 (stereo not given)
→ ., ., -8
CC(C)C(C(=O)NC1CCCC1)N1CCC(O)(c2ccc(Cl)cc2)CC1 (stereo not given)
→ ., ., 10
COc1ccc(C(C(=O)NC(C)(C)C)n2c(=O)c(-c3ccccc3)nc3ccccc32)cc1 (stereo not given)
→ ., ., -10
CCCCCNC(=O)C1C(=O)Nc2ccccc2C(=O)N1c1ccc(OC)cc1 (stereo not given)
→ ., ., 5
O=C(NC1CCCCC1)C(c1ccccc1F)n1c(=O)c(-c2cc3ccccc3[nH]2)nc2ccccc21 (stereo not given)
→ ., ., 56
Cc1cccc(C)c1N1C(=O)c2ccccc2NC(=O)C1C(=O)Nc1ccc2c(c1)OCCO2 (stereo not given)
→ ., ., -4
COC(=O)[C@]12CCCCC=C1N(CCc1ccc(OC)c(OC)c1)C(=O)[C@H](CC(=O)NCc1cccc(C(F)(F)F)c1)C2
→ ., ., 9
COC(=O)[C@@]12C[C@@H](CC(=O)NCC3CCCCC3)C(=O)N(Cc3cccc4ccccc34)C1=CCC(C)(C)C2
→ ., ., -3
COC(=O)[C@@]12C[C@@H](CC(=O)N3CCOCC3)C(=O)N(Cc3ccco3)C1=CCC(C)(C)C2
→ ., ., 6
COC(=O)C1=CN(c2ccc(Oc3ccccc3)cc2)C(N)=C(C#N)C1c1cccc(F)c1 (stereo not given)
→ ., ., 0
CCCc1nc2ccccc2n1C(CCSC)C(=O)NC(C)(C)C (stereo not given)
→ ., ., -7
COC(=O)[C@@]12C[C@@H](CC(=O)NCC34CC5CC(CC(C5)C3)C4)C(=O)N(Cc3ccco3)C1=CCC(C)(C)C2
→ ., ., -3
CC(C)NC(=O)C1(C)CN(S(C)(=O)=O)CC(=O)N1CCOc1ccccc1 (stereo not given)
→ ., ., -4
COC(=O)C[C@H]1C=C[C@@H](NC(=O)c2ccncc2)[C@@H](CO)O1
→ ., ., 8
COc1ccc(N2C(=O)c3ccccc3NC(=O)C2C(=O)Nc2ccc3c(c2)OCCO3)cc1 (stereo not given)
→ ., ., -8
O=C(NCC[C@@H]1CC[C@@H](NC(=O)c2cnccn2)[C@@H](CO)O1)c1ccc2c(c1)OCO2
→ ., ., -7
CSCCC(C(=O)NC1CCCC1)n1c(C2CC2)nc2ccccc21 (stereo not given)
→ ., ., -2

In another format: results already given.
COc1ccc(C(C(=O)NC(C)(C)C)n2c(=O)c(-c3ccccc3)nc3ccccc32)cc1 (stereo not given)
  TRPML1 ag = .
  D2 ag = .
  Six1-Eya2 blk = -10
CCCCCNC(=O)C1C(=O)Nc2ccccc2C(=O)N1c1ccc(OC)cc1 (stereo not given)
  TRPML1 ag = .
  D2 ag = .
  Six1-Eya2 blk = 5
O=C(NC1CCCCC1)C(c1ccccc1F)n1c(=O)c(-c2cc3ccccc3[nH]2)nc2ccccc21 (stereo not given)
  TRPML1 ag = .
  D2 ag = .
  Six1-Eya2 blk = 56
Cc1cccc(C)c1N1C(=O)c2ccccc2NC(=O)C1C(=O)Nc1ccc2c(c1)OCCO2 (stereo not given)
  TRPML1 ag = .
  D2 ag = .
  Six1-Eya2 blk = -4

Further entries follow:
The line under a structure holds: TRPML1 ag, D2 ag, Six1-Eya2 blk
CO[C@H]1CN(C)C(=O)c2ccc(NC(=O)c3ccc4c(c3)OCO4)cc2OC[C@H](C)N(CC2CC2)C[C@@H]1C
→ ., ., -5
C#CCNC(=O)C[C@@H]1C[C@@]2(C(=O)OC)CC(C)(C)CC=C2N(Cc2ccccc2)C1=O
→ ., ., -2
O=C(NCc1ccccc1)C(c1ccc(F)cc1)N1CCN(CCN2CCOCC2)CC1 (stereo not given)
→ ., ., 1
CC(C)NC(=O)C1(C)CSCC(=O)N1Cc1ccco1 (stereo not given)
→ ., ., -4
CC(C)(C)NC(=O)C(c1cc2ccccc2o1)n1c(=O)c(-c2ccccc2)nc2ccccc21 (stereo not given)
→ ., ., 0
COc1ccc(C(=O)NCCNc2nc3cc(C)cc(C)c3cc2C#N)cc1
→ ., ., 0
CC(C)NC(=O)C1(C)CN(S(C)(=O)=O)CC(=O)N1C1CCCCCC1 (stereo not given)
→ ., ., 12
CCOC(=O)[C@]12CCCC=C1N(CCC1=CCCCC1)C(=O)[C@H](CC(=O)NCCCOC)C2
→ ., ., -3
CCOC(=O)[C@]12CCCC=C1N(CCC1=CCCCC1)C(=O)[C@H](CC(=O)NCc1ccc(OC)c(OC)c1)C2
→ ., ., -11
CCC(C(=O)NC1CCCC1)n1c(-c2ccncc2)nc2ccccc21 (stereo not given)
→ ., ., 8
COC(=O)/C=C1\OCc2cc(OCc3ccccc3)ccc21
→ ., ., -1
Nc1nc2ccc(Cl)cc2cc1C(=O)NCCCN1CCOCC1
→ ., ., -12

Screens: PubChem, National Center for Advancing Translational Sciences (NCATS)

This is a subset; rates above refer to the full screens.
